# SARS PLP yeast: inhibitors of SARS-CoV papain-like protease in yeast | S. cerevisiae expressing SARS-CoV PLpro, growth rescue; control for the full effect not named in the record | Potency, µM (series often up to 32.9 µM), inactives show at the highest dose activity, positive = growth rescue | 330,000 tested, 0.19% active | AID 485353; active means well fitted rising curve with a large enough effect; inconclusive means small, poorly fitted or top-dose-only effect; inactive means no such curve, though single readings can be large or run the other way; also: 0% is about no effect; nearly all actives have a fitted effect of over 55% in size; growth read by luminescence after 48 h
# Cruzain inh noDet: cruzain (T. cruzi) inhibition without detergent | P25779 | purified cruzain, Z-FR-AMC fluorescence, no detergent | Potency, µM, for the others: max response, negative = inhibition, most hits filed as inhibitors | 200,000 tested, 2.3% active | AID 1476;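 also: plate controls were enzyme without inhibitor for no effect and buffer without enzyme for full effect; nearly all actives have a fitted effect of over 40% in size; top concentration of the series not given in the record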
# Target sequence (P25779 123-467 limits assumed): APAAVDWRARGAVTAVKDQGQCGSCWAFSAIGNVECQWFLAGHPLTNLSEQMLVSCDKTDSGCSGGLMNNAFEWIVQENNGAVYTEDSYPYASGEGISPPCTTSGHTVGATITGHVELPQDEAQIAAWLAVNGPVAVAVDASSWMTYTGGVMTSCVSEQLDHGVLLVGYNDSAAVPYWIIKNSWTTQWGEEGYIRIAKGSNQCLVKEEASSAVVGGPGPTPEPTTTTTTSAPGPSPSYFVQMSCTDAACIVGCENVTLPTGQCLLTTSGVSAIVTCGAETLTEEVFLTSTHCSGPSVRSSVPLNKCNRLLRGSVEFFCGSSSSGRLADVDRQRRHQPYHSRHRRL
#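 Detergent-free condition (0.00005% Triton X-100) in acetate buffer pH 5.5 with DTT. 1.5 nM enzyme and compound were pre-mixed 15 min, then 2 uM Z-FR-AMC substrate added; reaction progress from fluorescence change between first and third reads (60 s).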
# Cruzain Triton: inhibitors of Trypanosoma cruzi cruzain with detergent; purified cruzain, Z-FR-AMC fluorescence, 0.01% Triton; P25779; 200,000 tested, 0.43% active; Potency, µM, without a hit: max response, negative = inhibition, usual class: inhibitors;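 also: plate controls were neutral wells for no effect and buffer without enzyme for full effect; nearly all actives have a fitted effect of over 40% in size; top concentration of the series not given in the record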
#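 Read-out: AMC fluorescence (360 nm excitation, 450 nm emission), four reads over 2 min, first-to-third difference used. Conditions: cruzain 1.5 nM, Z-FR-AMC 2 uM, pH 5.5 acetate, 5 mM DTT, 0.01% Triton X-100.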
# RE007 growth inh: less growth of the S. pombe RE007 Vpr strain; S. pombe RE007 Vpr strain, BacTiter-Glo ATP luminescence, 24 h; control for the full effect not named in the record; Potency, µM (doses to about 92.2 µM), without a hit: top-dose activity change, negative = less growth; 360,000 tested, 0.21% active; AID 651644; active = well fitted falling curve with a large enough effect; inconclusive = small, poorly fitted or top-dose-only effect; inactive = no such curve, though single readings can be large or run the other way;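 also: % is scaled to controls: 0 for no effect and ±100 for the full control effect; nearly all actives have a fitted effect of over 50% in size; the assay follows cell death caused by Vpr and the record does not say whether a fall means rescue or toxicity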
#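 Fission yeast RE007 carrying one integrated HIV-1 vpr copy, seeded at OD 0.01 in PMG+AL medium with 23 nL pinned compound. Grown 24 h at 30 degrees; viability read by BacTiter-Glo luminescence after 5 min.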
# Marburg entry inh: blocks Marburg virus binding to or entry into cells; Potency, µM (titrated, usually from 37.8 µM), for inactives: at the top dose activity change, negative = inhibition, actives largely listed as inhibitors; 300,000 tested, 1.8% active; Marburg virus pseudotyped entry inhibition, cell reporter; control for the full effect not named in the record; about a third of the inactives were read at about 46 µM; active = well fitted inhibition curve with a large enough effect; inconclusive = small, poorly fitted or top-dose-only effect, or effect the other way; inactive = flat fitted curve, though single readings scatter; tested in HEK293 cells; about a fifth of its hits are not listed in these tables; also: % is scaled to controls: 0 for no effect and ±100 for the full control effect; luciferase read-out
# NS1 function inh: blocks influenza NS1 protein function; S. cerevisiae slowed by influenza A NS1, growth recovery by OD600; Potency, µM (titrated, usually from 46.1 µM), without a hit: top-dose activity, positive = more growth; 270,000 tested, 0.4% active; AID 2326; active means well fitted rising curve with a large enough effect; inconclusive means small, poorly fitted or top-dose-only effect; inactive means no such curve, though single readings can be large or run the other way; also: nearly all actives have a fitted effect of over 50% in size
#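 Read-out: OD600 growth recovery of NS1-expressing budding yeast. Cells grown overnight at 30C in -URA glucose medium, washed, resuspended and diluted 1:100 in 2% galactose assay medium, pH 6.0. Same strain lacking NS1 served as positive control.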
# StopGo reporter: lowers the luciferase signal of an FMDV 2A StopGo reporter | human cells with a luciferase reporter of 2A StopGo recoding; control for the full effect not named in the record | Potency, µM (highest dose often 57.9 µM), for the others: at the highest dose signal change, negative = less light | 410,000 tested, 1.2% active | AID 1159524; active = well fitted falling curve with a large enough effect; inconclusive = small, poorly fitted or top-dose-only effect; inactive = no such curve, though single readings can be large or run the other way; tested in HEK293T cells; also: % is scaled to controls: 0 for no effect and ±100 for the full control effect; nearly all actives have a fitted effect of over 45% in size; luciferase light after 4 h
# Lassa entry inh: Lassa virus entry inhibition | Lassa virus pseudotype entry inhibition, cell reporter; control for the full effect not named in the record | Potency, µM (top dose mostly 37.9 µM), for the others: at the highest dose activity change, negative = inhibition, hits mostly inhibitors | 300,000 tested, 1.2% active | AID 540256; active means well fitted inhibition curve with a large enough effect; inconclusive means small, poorly fitted or top-dose-only effect, or effect the other way; inactive means flat fitted curve, though single readings scatter; tested in HEK293 cells; also: % is scaled to controls: 0 for no effect and ±100 for the full control effect; nearly all actives have a fitted effect of over 50% in size; luciferase read-out
# * hit, by the source's call; ? = inconclusive; . = not tested or not shown; & = joins results of further samples; [ ] = dose if it differs, or a comment. Unless noted, calls follow the shape of the dose curve; as a rule, active = well fitted curve in the direction sought with a large enough effect; inconclusive = small, poorly fitted or top-dose-only effect, or another doubt; inactive = no such curve, though single readings can be large; an effect the other way counts as inactive or inconclusive. Potency is read from the fitted curve at half-maximal effect.
SMILES,SARS PLP yeast,Cruzain inh noDet,Cruzain Triton,RE007 growth inh,Marburg entry inh,NS1 function inh,StopGo reporter,Lassa entry inh
Cc1cc(N2CCN(c3ccccc3Cl)CC2)n2cc(-c3ccccc3)nc2n1,-15%,8%,-2.0%,-28%,?,8%,?,?
CCCCN(C(=O)NC(=O)C1=C(N2CCOCC2)/C(=C/c2ccccc2)CC1)S(C)(=O)=O,-10%,4%,-9.8%,-28%,18%,-36%,.,14%
CC1(C(=O)NCCc2c[nH]c3ccccc23)C=CCN1C(=O)c1ccccc1 (stereo not given),-15%,4%&-3%,-0.4%&11%,7%,44%,9%,20%,7%
O=C(CN1C(=O)c2cccnc2Oc2ccc(Cl)cc21)NCCC1=CCCCC1,15%,.,.,16%,.,-8%,1%,.
O=C1CCC(=O)N1CC(=O)N(c1ccccc1)c1ccccc1,-1%,.,.,2%,0%[46.1 µM],.,12%,.
Cc1csc(NC(=O)CSc2nnnn2C)n1,15%,-6%,-0.1%,3%,?,5%,18%,28%
COC(=O)[C@@]1(Cc2ccc(F)cc2)[C@H]2c3cc(C(=O)N4CCCC4)n(CCc4ccc(OC)c(Br)c4)c3C[C@H]2CN1C(=O)c1ccccc1,.,5%,2.0%,2%,.,.,-15%,.
CCOC(=O)c1c(C)[nH]c(C(=O)COC(=O)c2cnc(C)cn2)c1C,-8%,1%,-1.5%,0%,8%[46.1 µM],-15%,26%,2%
CCOC(=O)N1CCC(NC(=O)Cn2c3c(c(-c4ccccc4Cl)cc2=O)CCC3)CC1,0%,?,-5.2%,6%,6%,-7%,-14%,.
Cc1c(C(=O)OCC(=O)c2ccc3c(c2)OCCO3)oc2ccccc12,-4%,?,-1.5%,-5%,20%[46.1 µM],-5%,19%,-2%
CCNc1nc(NC(C)C)nc(ON=C(C)C)n1,9%,11%,-1.7%,.,.,-3%,.,.
O=C(Nc1ccc(F)cc1)C1CCC(CNc2c(N3CCCCC3)c(=O)c2=O)CC1 (stereo not given),4%,.,.,5%,.,6%,-9%,.
CC1CCCCC1NC(=O)Cn1c(=O)oc2cc(S(=O)(=O)N3CCCC3)ccc21 (stereo not given),-1%,.,.,-2%,.,1%,-19%,.
CCOc1cc(C(=O)OCC(=O)Nc2cc(C)on2)cc(OCC)c1OCC,-13%,0%,13%,-10%,?,-1%,-6%,0%
O=C(NCCc1ccccc1)C(c1ccccc1)N(C(=O)c1csnn1)C1CC1 (stereo not given),0%,.,.,-14%,16%[46.1 µM],3%,-15%,-1%
CCCNC(=O)c1cccc(Cn2cc(Br)c([N+](=O)[O-])n2)c1,1%,0%,-1.1%,5%,-13%,-1%,-8%,-9%
S=C(NCCSCc1ccccc1Cl)Nc1ccccc1,-21%,-21%,-25%,-30%,?,-23%,50%[activator],?
O=C(NN=CC=Cc1ccccc1)C(O)C(O)C(=O)NN=CC=Cc1ccccc1 (stereo not given),.,.,.,-1%,-4%,.,-17%,-1%
Cc1cccc(CN2CCN(C(C)C(=O)NC(C)c3ccccc3)CC2)c1 (stereo not given),0%,.,.,0%,?,1%,-24%,.
CCOC(=O)c1nnn(-c2nonc2-n2cccc2)c1CN1CCC(C)CC1,-8%,5%,-4.3%,14%,?,-34%,-28%,?
COC(=O)c1ccccc1NC(=O)c1cnn2c(C(F)F)cc(C3CC3)nc12,3%,0%,-12%,2%,?,-30%,?,-2%
COc1cccc(NC(=S)N2CCc3cc(OC)c(OC)cc3C2)c1,0%,.,.,2%,-2%[46.1 µM],-9%,-20%,?
COC(=O)Cc1ccc(NC(=S)NCCSc2ccc(C)cc2)cc1,-3%,.,.,-5%,.,-8%,-2%,.
C=C1CSc2nc3ccccc3c(=O)n21,.,-2%,1.9%,-2%,11%[46.1 µM],-1%,12%,10%
CC(C)c1cc(C(C)C)c(S(=O)(=O)N2CCNCC2)c(C(C)C)c1,.,.,.,-2%,10µM*,.,-7%,?

# Remaining list, next part
SMILES,SARS PLP yeast,Cruzain inh noDet,Cruzain Triton,RE007 growth inh,Marburg entry inh,NS1 function inh,StopGo reporter,Lassa entry inh
CCN(CC(=O)NCc1cccs1)S(=O)(=O)c1ccc(F)cc1,-5%,.,.,-2%,23%,.,-5%,1%
O=C(CN1CCN(S(=O)(=O)N2CCOCC2)CC1)Nc1cc(Cl)cc(Cl)c1,-1%,.,.,-22%,17%[46.1 µM],-16%,0%,-6%
COc1ccc(C(=O)NC2CC(=O)N(c3ccc4c(c3)OCCO4)C2)cc1 (stereo not given),.,4%,-1.2%,.,.,.,-6%,12%[46.1 µM]
CCOc1ccc(-c2nn(-c3ccccc3)cc2/C=C2\SC(=S)N(Cc3ccco3)C2=O)cc1,6%,10µM*,-5.7%,-10%,2%,9%,-20%,?
CC1(C)CC(=O)c2c(O)cc(O)cc2O1,-1%,-2%,-3.0%,14%,-10%,5%,-5%,?
C#CCOCCOCCOCCNc1nc(N2CCN(C(=O)[C@H]([C@@H](C)CC)n3cc([C@@H](N)Cc4ccc(O)cc4)nn3)CC2)nc(N2CCN(C(=O)[C@H]([C@@H](C)CC)n3cc([C@@H](N)CC(C)C)nn3)CC2)n1,-1%,.,.,11%,.,-5%,5%,.
CCCOc1ccc(N2C(=O)CC(N(Cc3ccccc3)N=O)C2=O)cc1 (stereo not given),0%,.,.,-12%,?,-6%,12%,-20%
Cc1c(Br)c([N+](=O)[O-])nn1CC(=O)Nc1sc2c(c1C(=O)OC(C)C)CCC(C)C2 (stereo not given),6%,16µM*,-3.6%,4%,-5%,7%,-9%,3%
Cc1cc(C)c2c3c(sc2n1)C(c1ccccc1)C(C#N)=C(N)O3 (stereo not given),0%,-1%,-7.1%,-2%,-2%,4%,16%,-13%
Cc1ccccc1NC(=S)Nc1cccc([N+](=O)[O-])c1,-1%,1%,3.2%,-8%,-4%,7%,13%,2%
O=C(Cc1ccc(Br)cc1)NNC(=O)Nc1ccc(Cl)cc1,0%,.,.,0%,?,5%,-4%,-22%[46.1 µM]
CC(=O)N(C)c1ccc(OCC(O)Cn2c(C)nc3ccccc32)cc1 (stereo not given),1%,.,.,-4%,?,.,?,?
COc1cc(C(C)=O)ccc1Oc1cnccn1,1%,.,.,12%,-1%[46.1 µM],.,-9%,-30%
Cc1ccc(OCCOCCN2CCCC2)c(Br)c1,-7%,.,.,-15%,.,-3%,-19%,.
CN1CCN(c2cc(=O)n(-c3ccc(Cl)cc3)c(=O)[nH]2)CC1,-2%,0%,2.9%,2%,.,-4%,-21%,.
O=C(/C=C/c1cn(CC(O)CN2CCc3ccccc32)c2ccccc12)c1ccc(Br)cc1 (stereo not given),.,?,-2.8%,.,-17%[46.1 µM],.,-4%,-21%[46.1 µM]
Cn1cc(CNC(=O)C2CCC(=O)N(Cc3ccccc3F)C2)cn1 (stereo not given),1%,.,.,-8%,9%,6%,1%,?
O=C1CC(c2nc3ccccc3[nH]2)CN1c1cccc(Cl)c1 (stereo not given),.,-12%,-13%,.,13%[46.1 µM],.,0%,-2%[46.1 µM]
Oc1c(CN2CCOCC2)ccc(CN2CCOCC2)c1O,.,0%,-2.5%,-4%,5%[46.1 µM],-4%,1%,-7%[46.1 µM]
CC(C)CC(=O)c1c[nH]c(C(=O)NCc2ccc(F)cc2)c1,-1%,.,.,5%,.,-1%,13%,.
O=C(CSc1nc2c([nH]c3ccccc32)c(=O)n1-c1ccc(F)cc1)NCc1ccco1,16%,-23%&-3%,-3.4%&-0.1%,3%,0%,24%,?,-7%[46.1 µM]
O=C(NCc1nc2ccccc2[nH]1)c1cccc(S(=O)(=O)N2CCOCC2)c1,-1%,-4%,-1.3%,-12%,1%,-2%,38%[activator],?
COc1ccc(NC(=O)CSc2nnc(CN3CCOCC3)n2-c2ccccc2)cc1Cl,-4%,?,7.1%,-2%,-11%,-14%,-10%,-11%
O=C(NC1CCCc2ccccc21)C1CCN(S(=O)(=O)N2CCCCCC2)CC1 (stereo not given),2%,2%,-5.0%,6%,19%,-1%,?,?
Fc1ccc(-c2nn3c(C4COc5ccccc5O4)nnc3s2)cc1 (stereo not given),?,-15%,-4.7%,18%,13%&13%,-96%,66%[activator],?

# Single entries from the results shown:
# Entry of O=C(Cc1ccc(Br)cc1)NNC(=O)Nc1ccc(Cl)cc1 under StopGo reporter: -4%
# Entry of Cn1cc(CNC(=O)C2CCC(=O)N(Cc3ccccc3F)C2)cn1 (stereo not given) under Marburg entry inh: 9%

# (further entries)
SMILES,SARS PLP yeast,Cruzain inh noDet,Cruzain Triton,RE007 growth inh,Marburg entry inh,NS1 function inh,StopGo reporter,Lassa entry inh
CCOC(=O)c1cccc(NC(=O)CC2Oc3ccccc3NC2=O)c1 (stereo not given),0%,.,.,18%,.,-1%,-14%,.
CCCc1ccc2oc(C(=O)N(Cc3ccncc3)CC3CCCO3)c(C)c2c1 (stereo not given),-13%,.,.,7%,?,-60%,17%,6.3µM*
O=C(Nc1cccc(NC(=O)c2cccc(F)c2)n1)c1cccc(F)c1,-5%,.,.,?,-4%,-6%,-23%,0%
Cc1cccc(OC(=O)c2cc(-c3ccc4c(c3)OCCO4)on2)c1,.,7%,-7.4%,.,-10%[46.1 µM],.,17%,11%[46.1 µM]
CCC(C(=O)NCCCN1CCN(C)CC1)n1nc(C)c2sc3ccccc3c2c1=O (stereo not given),-3%,.,.,9%,.,-16%,26%,.
Cc1cc(C)cc(C(=O)NC(CC(N)=O)c2ccc(NCC3CC3)c([N+](=O)[O-])c2)c1 (stereo not given),14%,.,.,1%,.,-9%,-19%,.
Cc1ccc(-c2nnn(CC(=O)N(c3cccc(F)c3)C(C(=O)NC3CCCC3)c3ccco3)n2)o1 (stereo not given),6%,6.3µM*,1.8%,-15%,?,-3%,1%,-15%
CCOC(=O)CN(C(=O)COc1nc(-c2ccccc2)cc(C)c1C#N)c1ccccc1,0%,.,.,-15%,-4%[46.1 µM],-2%,-10%,13%[46.1 µM]
Cc1cc(N2CCN(S(=O)(=O)c3ccccc3)CC2)nc2c(C)cccc12,4%,.,.,13%,?,9%,-16%,-4%[46.1 µM]

# Assay outcomes: PubChem, National Center for Advancing Translational Sciences (NCATS)
